# Screening data: PubChem, ICCB-Longwood Screening Facility, Harvard Medical School
# GIV Gai3 FP – GIV-Galpha-i interaction inhibition | AID 1224905 | Galpha-i3/FITC-GIV peptide fluorescence polarization, 90 min; stronger effect = lower value; scaled: aluminum fluoride 0%, vehicle 100% | percent of control (FP), % (test concentration not listed) | P08753 | 0.42% of 210,000 active;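 active = replicate mean at 85% of control or lower, very high polarization wells dropped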;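 also: wells of about 15 µL received 100 nL stock; the first replicate is given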
# Target sequence (P08753 whole entry, looked up): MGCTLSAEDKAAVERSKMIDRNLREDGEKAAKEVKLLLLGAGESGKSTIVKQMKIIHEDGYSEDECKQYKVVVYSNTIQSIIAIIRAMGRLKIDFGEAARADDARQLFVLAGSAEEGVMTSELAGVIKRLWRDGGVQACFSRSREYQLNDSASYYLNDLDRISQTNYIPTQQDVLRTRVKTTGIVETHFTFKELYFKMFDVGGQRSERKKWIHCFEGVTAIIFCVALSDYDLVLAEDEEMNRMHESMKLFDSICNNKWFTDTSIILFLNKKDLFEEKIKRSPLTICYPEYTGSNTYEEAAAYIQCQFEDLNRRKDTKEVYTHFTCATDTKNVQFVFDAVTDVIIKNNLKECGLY
# Sa growth 42C – S. aureus growth inhibition | S. aureus RN4220 growth, OD600, 20 h, 42 °C; stronger effect = lower value | relative growth, % (no concentration beside the values) | 0.53% of 170,000 active | AID 720641;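 active = growth at 42 °C up to 50% and 20 or more points under that at 30 °C, or under 10% at both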;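 also: 300 nL library stock went into each well; scaled to the means of positive and negative controls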
# HCMV NEC inh – inhibitors of HCMV UL50-UL53 nuclear egress complex interaction; HTRF UL50-UL53 interaction, normalized percent inhibition; inhibition, % (test concentration not listed); 0.15% of 190,000 active;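 active = both replicates at 50% or more, plus weaker picks with an unusually low signal ratio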;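 also: stock transfer was 100 nL into about 20 µL; 0% = negative control wells and 100% = wells with untagged competitor protein; inactives centre near -12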
# Sa growth 42C second temp – also measured in Sa growth 42C; calls as there; relative growth, %; measured here: growth at 30 °C;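 optical density after 20 h as mean of two plates; 100% = untreated growth and lower means inhibition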
# * = called active by the depositor; · = not tested or not shown.
SMILES,GIV Gai3 FP,Sa growth 42C,Sa growth 42C second temp,HCMV NEC inh
CCOc1ccc2nc(N3CCCC(C(=O)NCc4ccc(OC)cc4)C3)sc2c1 (stereo unspecified),103,116,87,-36
S=c1[nH]n(Cc2ccccc2)c(=NCc2ccccc2)s1,·,108,79,-23
COc1ccccc1NC(=O)C(C)OC(=O)c1ccc(NS(=O)(=O)c2ccc3[nH]c(=O)[nH]c3c2)cc1 (stereo unspecified),·,101,95,-4
Clc1cccc(-c2ccc(CNCC3CCNCC3)o2)c1,103,·,·,-15
CCC(C(=O)Nc1ccccc1OC)n1c(C(=O)OC)cc2ccsc21 (stereo unspecified),104,80,87,3
O=C1c2ccccc2C(=O)N1CCc1ncn[nH]1,104,105,99,8
O=C(COC(=O)/C=C/c1ccc(Br)o1)Nc1ccccc1,·,97,92,-26
S=c1cc(-c2ccccc2)oc(-c2ccccc2)c1,104,96,62,·
CCCn1nnc2cc(S(=O)(=O)N3CCCC(C(=O)NCc4ccc(C)cc4)C3)ccc21 (stereo unspecified),105,·,·,0
CCCC1c2ccc(C)n2CCN1C(=O)Nc1ccc(CC(=O)OCC)cc1 (stereo unspecified),161,·,·,-8
O=C(CNC(=O)c1cccs1)NCc1cccs1,104,107,93,·
CSc1cccc(NC(=O)C2CCCN(C(=O)c3cnn(-c4ccc(F)cc4)c3-n3cccc3)C2)c1 (stereo unspecified),103,94,92,·
CCN1C(=O)c2ccccc2Sc2ccc(C(=O)NCCc3ccccc3)cc21,103,132,92,·
O=C(NCCCn1ccnc1)c1ccc(Oc2ccccc2)cc1,·,98,101,16
CCN(CCCNC(=O)c1sc2ncn(CC(=O)N3CCCCC3C)c(=O)c2c1C)Cc1ccccc1 (stereo unspecified),105,·,·,-27
O=c1cc(CO)oc(C(Nc2ccccn2)c2ccccc2O)c1O (stereo unspecified),106,103,92,·
CCCCN(CC)S(=O)(=O)c1c(C)[nH]c(=O)[nH]c1=O,108,101,97,·
CC(=O)N1CCCc2ccc(NS(=O)(=O)c3cccc(Cl)c3)cc21,109,95,96,·
Cc1c(C(=O)O)oc2ccc3c(c12)C(O)CC1(CCCC1)O3 (stereo unspecified),112,89,101,2
CCN(CC)c1ccc(NC(=O)CN2CCN(c3ccccc3F)CC2)cc1,106,94,91,·
COC(=O)c1cc(NC(=O)c2c(-c3ccccc3)noc2C)cc(C(=O)OC)c1,104,95,87,6
COc1cccc(NC(=O)CSc2cccc[n+]2[O-])c1,·,95,94,-14
CCOc1ccc(CCNC(=O)c2cnc3sc(N4CCCCC4)nn3c2=O)cc1,97,108,89,·
CCCCC(=O)Nc1cc(-c2nc3cccnc3s2)ccc1C,103,98,87,-11
O=C1c2ccccc2C(=O)N1CCc1nc(=S)[nH][nH]1,·,77,89,-10
O=C(NCCc1ccc(Cl)cc1)C1CCCO1 (stereo unspecified),100,101,92,-13
COc1c(CO)cc(CO)cc(CO)c1=O,102,94,85,-72
CCCCC1=NN2C(=N)/C(=C\c3cccn3-c3ccc(OC)c(Cl)c3)C(=O)N=C2S1,100,60,41,-33
Cc1ccc(C)c(CN2C(=O)C3(c4ccccc42)N(c2ccc(Cl)cc2)C(=O)CS3(=O)=O)c1 (stereo unspecified),97,83,96,·
Cc1ccc(C2N=C3C=C(NC(=O)c4cccnc4)C=CC3O2)cc1C (stereo unspecified),·,115,80,-6
CCC(C)NC(=O)C1CCC(=O)N(c2ccc(OC)cc2)C1c1ccc(OC)c(OC)c1 (stereo unspecified),112,102,101,-11
O=C(Nc1ccc(O)c(-c2nc3ccccc3o2)c1)C1(c2ccccc2)CCCC1,99,104,89,·
Cc1ccc(-c2csc(NC(=O)CSC(C)(C)C)n2)o1,·,101,99,-10
O=C(OCC1CC1)c1sc2ccccc2c1Cl,104,91,97,-8
COc1ccccc1N1CCN(C(=O)COc2ccccc2C#N)CC1,98,93,78,-16
Cc1cccc(-c2nc(CSCC(=O)NCc3ccccc3)c(C)o2)c1,97,99,90,0
CCCc1nc2nc(C)cc(Cl)n2n1,104,92,89,·
CCn1c(=O)oc2cc(NC(=O)c3c(-c4ccccc4Cl)noc3C)ccc21,102,·,·,10
COc1ccc(-c2cn3nc(N4CCCC(C(=O)Nc5cc(Cl)ccc5OC)C4)sc3n2)cc1 (stereo unspecified),102,98,73,·
COC(=O)C1=C(C)NC(SCC(=O)c2cccs2)=C(C#N)C1c1ccc2c(c1)OCCO2 (stereo unspecified),·,97,81,-19

# Some entries already given, showing only HCMV NEC inh and Sa growth 42C second temp:
molecule | HCMV NEC inh | Sa growth 42C second temp
CCCCC1=NN2C(=N)/C(=C\c3cccn3-c3ccc(OC)c(Cl)c3)C(=O)N=C2S1 | -33 | 41
Cc1ccc(C2N=C3C=C(NC(=O)c4cccnc4)C=CC3O2)cc1C (stereo unspecified) | -6 | 80
COc1ccc(-c2cn3nc(N4CCCC(C(=O)Nc5cc(Cl)ccc5OC)C4)sc3n2)cc1 (stereo unspecified) | · | 73

# New compounds follow:
SMILES,GIV Gai3 FP,Sa growth 42C,Sa growth 42C second temp,HCMV NEC inh
COc1cccc(C2(O)CCN(C(=O)C3CCC3)CC2)c1,96,94,76,10
O=C1c2ccccc2C(=O)N1C1CCCCC1N1C(=O)c2ccccc2C1=O (stereo unspecified),·,93,92,-35
O=Nc1c(O)n(CC(=O)Nc2ccccc2)c2ccccc12,97,98,101,·
Cc1ccc(Cn2c(=O)cc(C(=O)NC3CCCCC3)c3ccccc32)cc1,101,101,82,·
COc1cc(C2C(C(=O)OCC(C)C)=C(C)N=C3SCCC(=O)N32)ccc1OCc1ccccc1 (stereo unspecified),104,89,92,-29
CCCn1c(=O)c2sccc2n2c(=S)[nH]nc12,102,·,·,-4
CC(C)c1ccc(-c2ncc(CSc3nnc(CN4CCCCCC4=O)o3)s2)cc1,·,86,68,-31
COc1ccc(S(=O)(=O)Nc2ccc(N3CCCS3(=O)=O)cc2)cc1OC,102,·,·,-25
C=CCNC(=O)c1cc2cccc(OC)c2oc1=O,108,89,83,-146
Oc1ccccc1C/C=C/c1ccccc1,102,84,84,-20
N#CCCC1C(=O)CCCC1=O,103,101,89,-12
Cc1ccccc1Nc1nc(N)nc(COC(=O)CCN2C(=O)C3CC=CCC3C2=O)n1 (stereo unspecified),·,97,81,-11
Cc1cccc(OCc2ccc(-c3nc(C#N)c(NCCN(C)C)o3)o2)c1,99,111,95,-19
Cc1cnc(NC(=O)C(C)N2CCN(C)CC2)s1 (stereo unspecified),99,98,91,-4
COc1cc(C(=O)OCC(=O)NC2CCS(=O)(=O)C2)ccc1OCc1c(C)noc1C (stereo unspecified),·,67,89,-8
O=C(Nc1ccc2c(c1)nc1n2CCN(Cc2ccccc2)C1)c1ccc(Cl)cc1,102,·,·,12
CSc1nn(-c2ccccc2)c(N)c1S(=O)(=O)c1ccc(Cl)cc1,102,89,83,-9
O=C(CSc1nc2ccccc2nc1Cc1ccc(Cl)cc1)Nc1ccc2c(c1)OCO2,104,95,91,·
O=C(CCn1c(=O)c2sccc2n(Cc2cccc(F)c2)c1=O)NCc1ccc2c(c1)OCO2,108,87,86,9
COc1ccccc1-c1c(C(F)(F)F)oc2c(CN3CCCCC3)c(O)ccc2c1=O,102,·,·,-12

# Five consecutive records out of the list so far, for reference:
SMILES,GIV Gai3 FP,Sa growth 42C,Sa growth 42C second temp,HCMV NEC inh
O=C(Nc1ccc2c(c1)nc1n2CCN(Cc2ccccc2)C1)c1ccc(Cl)cc1,102,·,·,12
CSc1nn(-c2ccccc2)c(N)c1S(=O)(=O)c1ccc(Cl)cc1,102,89,83,-9
O=C(CSc1nc2ccccc2nc1Cc1ccc(Cl)cc1)Nc1ccc2c(c1)OCO2,104,95,91,·
O=C(CCn1c(=O)c2sccc2n(Cc2cccc(F)c2)c1=O)NCc1ccc2c(c1)OCO2,108,87,86,9
COc1ccccc1-c1c(C(F)(F)F)oc2c(CN3CCCCC3)c(O)ccc2c1=O,102,·,·,-12

# (cont.)
SMILES,GIV Gai3 FP,Sa growth 42C,Sa growth 42C second temp,HCMV NEC inh
Cn1cc(S(=O)(=O)N2CCCCC2)cc1C(=O)N1CCCCC1,116,·,·,-8
O=C(NCc1ccc(Cl)cc1)c1cc2cccc3c2n1CCS3,104,96,92,·
CC1=CC(C)=NC2=NN=C(NC(=O)Nc3ccc(Cl)c(Cl)c3)C12 (stereo unspecified),·,95,80,-13
COc1ccc(N2CCN(C(=O)Cn3c(Cl)nc4c3c(=O)n(C)c(=O)n4C)CC2)cc1,·,97,94,-5
O=C(CCCN1C(=O)CSc2ncccc21)NC1CCCC1,97,99,86,-7
CC(=O)Oc1cc2oc(=O)cc(C)c2cc1Cl,·,88,89,-43
COc1ccc(CCNC(=O)c2ccc3[nH]c(C)c(C)c3c2)cc1OC,98,120,90,·
CCC(Sc1nc2c(c(=O)[nH]1)CCC2)C(=O)Nc1ccccc1F (stereo unspecified),102,93,82,-16
O=C(COC(=O)C1CCCCC1)Nc1ncc(C(F)(F)F)cc1Cl,·,121,100,-6
COc1ccc(C2C(C(=O)Nc3nc4ccccc4s3)=C(C)NC3=C2C(=O)CC(C)(C)C3)cc1 (stereo unspecified),110,·,·,2
CCN1CCc2c(sc(-n3cccc3)c2C(CCC(C)C)NC(=O)NCCC(=O)OC)C1 (stereo unspecified),126,91,91,·
COC(=O)c1ccc(Cn2c(Cc3ccccc3)nc3ccccc32)o1,·,113,91,-7
O=C(Nc1cccc(-c2nc3ncccc3o2)c1)c1ccc(-c2cccc(Cl)c2Cl)o1,110,92,72,18
O=C(CN1CCOc2ccccc21)NC1CCCCCC1,107,98,89,·
COc1ccc(NC(=O)c2sc3nc(-c4ccc(OC)cc4)cc(C(F)(F)F)c3c2N)cc1,96,93,87,-41
CSc1ccccc1NC(=O)Nc1ccccc1,100,102,93,-6
CC(=O)Oc1cn(C(C)C)c2nc(C)n3c(=O)c4ccccc4nc3c12,·,102,89,-14
CC(=O)N1c2ccccc2NC(=O)C1CC(=O)Nc1ccccc1Cl (stereo unspecified),112,106,97,-8
CCOc1ccc(N(C)C(=O)c2oc(=O)c3ccccc3c2-c2ccccc2)cc1,96,112,75,-41
Cn1c(=O)c2c(SCC(=O)Nc3ccc(F)cc3F)nc(C3CCCC3)nc2n(C)c1=O,98,65,93,·
COc1ccc(NC(=O)C2CCCN(S(=O)(=O)c3cccs3)C2)cc1 (stereo unspecified),109,122,90,1
COc1ccc(C)cc1NC(=O)c1cc(S(=O)(=O)N2CCOCC2)cn1C,103,100,87,-15
CCc1cccc(C)c1NC(=O)CN(C)S(=O)(=O)c1cccc2nsnc12,104,96,88,-101
CCOC(=O)NCc1cc(C(=O)O)ccc1O,104,109,98,-45
Cc1cccc(N2CN(Cc3ccco3)CNC2=S)c1,101,110,82,·
COc1ccc(NC(=O)c2ccc(NC(=O)CCS(=O)(=O)c3cccs3)cc2)cc1,105,116,88,-28
Cc1c(C(=O)N(C)Cc2ccccc2)oc2ccc(S(=O)(=O)N3CCCC3)cc12,101,96,50,-8
COc1ccc(C(=O)c2cnc3cc4c(cc3c2N2CCCCC2)OCO4)cc1,100,98,78,-3
CN1C(=O)c2ccc(NC3=NS(=O)(=O)c4ccccc43)cc2C1=O,100,89,106,-59
CC(=O)c1cccc(NC(=O)c2ccc(Cl)c(S(=O)(=O)N3CCOCC3)c2)c1,105,102,89,-35
CCC(=O)Nc1cc(-c2nc3cc(OC)ccc3o2)ccc1C,103,106,101,-8
O=C(O)CCNS(=O)(=O)c1ccc(Br)cc1,99,125,90,·
COc1cccc(NC(=O)Cn2nc(-c3ccccc3)ccc2=O)c1,97,105,91,-14
CN(CC(=O)O)c1ccccc1C(=O)O,100,121,92,-18
Cn1nc(C(=O)NCc2ccccc2)c2c1CCN(C(=O)C1CCCCC1)C2,99,·,·,-27
CN1CCN(/N=C/c2nc(-c3ccccc3)n3ccccc23)CC1,104,107,87,·

# Sorted by the number under Sa growth 42C second temp (lowest first): some entries from above.
mol,Sa growth 42C second temp
Cc1c(C(=O)N(C)Cc2ccccc2)oc2ccc(S(=O)(=O)N3CCCC3)cc12,50
CN1CCN(/N=C/c2nc(-c3ccccc3)n3ccccc23)CC1,87
O=C(O)CCNS(=O)(=O)c1ccc(Br)cc1,90
COc1cccc(NC(=O)Cn2nc(-c3ccccc3)ccc2=O)c1,91

# Rewritten with bars between the fields: part of the list above.
Structure | GIV Gai3 FP | Sa growth 42C | Sa growth 42C second temp | HCMV NEC inh
CC1=CC(C)=NC2=NN=C(NC(=O)Nc3ccc(Cl)c(Cl)c3)C12 (stereo unspecified) | · | 95 | 80 | -13
COc1ccc(N2CCN(C(=O)Cn3c(Cl)nc4c3c(=O)n(C)c(=O)n4C)CC2)cc1 | · | 97 | 94 | -5
O=C(CCCN1C(=O)CSc2ncccc21)NC1CCCC1 | 97 | 99 | 86 | -7
